Hedgehog inh: blocks Sonic Hedgehog signaling; Shh-LIGHT2 Gli-luciferase reporter, 30 h; inhibition, % (test concentration not listed); 22,000 compounds, 2.1% hits; AID 2313;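 active means replicate mean of 65% or more; inconclusive means mean lower but half the replicates past it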;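 further: pathway switched on by Shh-conditioned medium diluted 1 in 25 in low serum; 100 nL library stock added to about 40 µL; 0% = median of neutral wells and 100% = positive control level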
MITF inh: MITF inhibition | TRPM1 promoter luciferase, luminescence, 24 h | inhibition, % (concentration not given with the values) | 37,000 compounds, 0.28% hits;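 active means most replicates at 85% or more, or half of them and the mean; inconclusive means half reach 85% but not the mean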;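 further: human melanocyte line stably carrying TRPM1 promoter luciferase reporter; 0% = vehicle wells and 100% = a positive control; the first replicate is given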
PD-1 reverse act: activators reversing PD-1 mediated T-cell inhibition. primary human CD4 T cells, PD-L1 beads, CellTiter-Glo 96 h. activation, % (concentration not given with the values). 29,000 tested, under 10 active;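 active means replicate mean of 50% or more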;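 further: 0% = median vehicle wells and 100% = positive control; 100 nL library stock added to about 50 µL; numbers are from one replicate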
YB-1 expression: YB-1 expression inhibition. U2OS, qRT-PCR YB-1 vs CDIP delta delta Cp, 16 h; hits give high values; zero = DMSO, each unit about twofold. delta delta Cp (YB-1 minus CDIP) (no concentration beside the values). 30,000 compounds, 0.37% hits;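 active means delta delta Cp rounded down to an integer at or above 3, about 3 SD of DMSO wells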;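 further: higher means less YB-1 transcript or more CDIP transcript relative to DMSO; stock transfer was 100 nL into about 100 µL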
The depositor's hits bear a star; ? = inconclusive; / = not tested or not shown. These rows are one share of the data. The share of hits here may be higher or lower than overall.

SMILES	Hedgehog inh	MITF inh	PD-1 reverse act	YB-1 expression
C[C@@H]1CN([C@@H](C)CO)C(=O)Cc2cc(NC(=O)CCC(F)(F)F)ccc2O[C@@H]1CN(C)C(=O)NC1CCCCC1	-1	2	-0.3	0.34
CCc1ccccc1NC(=O)C(C)n1nc([N+](=O)[O-])c(Br)c1C (stereo unspecified)	/	3	-2.8	/
C[C@H]1CN([C@@H](C)CO)C(=O)Cc2cc(NS(=O)(=O)c3cccs3)ccc2O[C@H]1CN(C)C(=O)Nc1ccc2c(c1)OCO2	/	3	-0.1	-0.36
COc1ccc(OC)c(-n2c(=S)[nH]c3cc(C(=O)N4CCC(C(N)=O)CC4)ccc3c2=O)c1	-23	6	3.6	0.38
C[C@@H]1CN([C@@H](C)CO)C(=O)c2cccc(NS(=O)(=O)c3cccs3)c2O[C@H]1CN(C)Cc1ccc(C(=O)Nc2ccccc2N)cc1	/	-11	1.5	-0.39
O=C(CC1(O)C(=O)Nc2ccc(Br)cc21)c1ccc(NS(=O)(=O)c2ccccc2)cc1 (stereo unspecified)	/	14	-1.3	/
C[C@H]1CN([C@@H](C)CO)C(=O)c2cccc(NC(=O)CCCCCC(=O)Nc3ccccc3N)c2O[C@@H]1CN(C)S(=O)(=O)c1ccc(Cl)cc1	/	-3	0.8	-0.0044
CC(=O)Nc1ccccc1NC(=O)Cc1ccccc1[N+](=O)[O-]	/	39	-0.6	/
C[C@@H]1CN([C@H](C)CO)C(=O)c2cc(NC(=O)CCCCCC(=O)Nc3ccccc3N)ccc2O[C@H]1CN(C)C(=O)NC1CCCCC1	/	-1	1.3	-0.008
C[C@@H]1CN([C@H](C)CO)C(=O)c2cc(NC(=O)Nc3ccc(C(F)(F)F)cc3)ccc2O[C@@H]1CN(C)Cc1ccc(Cl)c(Cl)c1	15	25	-1.8	0.33
CC(C)NC(=O)Nc1ccc2c(c1)C(=O)N([C@H](C)CO)C[C@@H](C)[C@@H](CN(C)S(=O)(=O)c1ccccc1)O2	-3	-5	0.3	0.031
Cc1occc1-c1nnc(SCC(=O)Nc2ccccc2[N+](=O)[O-])n1-c1ccccc1	/	20	2.2	/
C[C@H](CO)N1C[C@H](C)[C@@H](CN(C)C(=O)Nc2ccc(F)cc2)Oc2ccc(NS(=O)(=O)c3ccccc3)cc2C1=O	-25	-4	1.1	0.3
COc1ccc(S(=O)(=O)N(C)C[C@H]2Oc3c(NC(=O)NC(C)C)cccc3C(=O)N([C@@H](C)CO)C[C@@H]2C)cc1	-44	2	/	-0.042
Cc1ccc(S(=O)(=O)Nc2ccc3c(c2)C(=O)N([C@@H](C)CO)C[C@@H](C)[C@H](CN(C)CC2CC2)O3)cc1	-17	0	/	-0.052
COc1ccc(NC(=O)Nc2cccc3c2O[C@H](CN(C)C)[C@H](C)CN([C@@H](C)CO)C3=O)cc1	41	-32	1.4	-0.27
C[C@@H]1CN([C@@H](C)CO)C(=O)c2cc(NC(=O)C3CCCCC3)ccc2O[C@H]1CN(C)Cc1ccc2c(c1)OCO2	/	-1	0.3	0.2
CSc1ccc(/C=N/N(C)S(=O)(=O)c2ccc(C)cc2)cc1	/	9	1.6	-0.3
Cc1noc(C)c1NC(=O)N(C)C[C@@H]1Oc2ccc(N(C)C)cc2C(=O)N([C@H](C)CO)C[C@@H]1C	-15	-7	0.0	0.42
Cc1ccc(-c2noc(CSc3nc(C)cc(C)n3)n2)cc1	/	-18	2.4	/
COc1ccc(NC(=O)N(C)C[C@H]2Oc3ccc(NC(=O)Cn4cnnn4)cc3CC(=O)N([C@H](C)CO)C[C@H]2C)cc1	23	-3	1.0	-0.19
COc1ccc(NC(=O)N(C)C[C@H]2Oc3ccc(NS(=O)(=O)c4cccs4)cc3CC(=O)N([C@@H](C)CO)C[C@@H]2C)cc1	3	0	0.2	0.19
COc1ccc(S(=O)(=O)NC2(C(=O)O)CCCCC2)cc1	/	-12	2.2	/
COc1ccc(S(=O)(=O)N(C)C[C@@H]2Oc3c(NS(=O)(=O)c4cn(C)cn4)cccc3C(=O)N([C@H](C)CO)C[C@@H]2C)cc1	/	-1	0.8	0.064
O=C(Nc1nccs1)c1cccc(S(=O)(=O)N2CCCCC2)c1	-35	6	-0.3	0.57

(further entries)
SMILES	Hedgehog inh	MITF inh	PD-1 reverse act	YB-1 expression
COc1ccc2c(c1)C(=O)N(CCc1ccc(S(=O)(=O)NC(=O)NC3CCCCC3)cc1)C(=O)C2(C)C	-62	-19	/	-0.67
NC(=O)N1c2ccccc2C=Cc2ccccc21	-7	9	3.9	-0.21
C[C@@H]1CCCCO[C@@H](CN(C)Cc2ccccc2)[C@@H](C)CN([C@H](C)CO)C(=O)c2cc(NC(=O)Nc3ccc(F)cc3)ccc2O1	/	31	0.8	-0.39
C[C@@H]1CCCCO[C@H](CN(C)C(=O)C2CCCCC2)[C@@H](C)CN([C@H](C)CO)C(=O)c2cc(NC(=O)C3CCCCC3)ccc2O1	-5	-1	-3.3	-0.39
CC(=O)NC(C)c1ccccc1 (stereo unspecified)	-16	-6	2.7	-0.064
Cc1ccc(S(=O)(=O)Nc2c(C)[nH]c(=O)[nH]c2=O)cc1C	/	-5	-0.9	/
COc1cc2ccc(=O)oc2c(O[C@@H]2O[C@H](CO)[C@@H](O)[C@H](O)[C@H]2O)c1O	-3	-16	0.5	2.6
Cc1cc(C)c(C#N)c(SCC(=O)Nc2cc(C(F)(F)F)ccc2Cl)n1	/	-6	0.3	/
CS(=O)(=O)N(CC(=O)Nc1ccc(F)c(F)c1)c1ccc(Br)cc1	/	-1	-4.5	/
Cc1noc(C)c1NC(=O)Nc1cccc2c1O[C@@H](CN(C)S(=O)(=O)c1ccccc1)[C@H](C)CN([C@H](C)CO)C2=O	11	-8	/	-0.51
C[C@@H]1CN([C@@H](C)CO)C(=O)c2cc(NC(=O)CCN3CCOCC3)ccc2O[C@H]1CN(C)S(C)(=O)=O	/	-13	0.7	-0.2
Cc1cc(C(=O)Nc2cccc3c2O[C@H](CN(C)S(C)(=O)=O)[C@@H](C)CN([C@@H](C)CO)C3=O)n(C)n1	-7	-4	-0.1	0.16
Cc1cc(C)nc(SCC(=O)Nc2nonc2N)n1	/	-3	1.3	/
COc1ccccc1NC(=O)Cn1nnc(-c2cc(OC)c(OC)c(OC)c2)n1	/	20	-2.0	/
CCCCCCCCCCC/C=C\C(C)(C)/C=C\CCCC(=O)O	-12	-2	/	-0.064
Cc1ccc(NC(=O)COc2ccc(Cl)cc2Br)c([N+](=O)[O-])c1	/	-26	-0.7	/
C[C@H](CO)N1C[C@H](C)[C@@H](CN(C)S(=O)(=O)c2cccs2)Oc2ccc(NC(=O)CCN3CCOCC3)cc2C1=O	-10	3	0.5	-0.039
Cc1ccc(S(=O)(=O)N(C)C[C@H]2Oc3ccc(NC(=O)C4CC4)cc3CC(=O)N([C@@H](C)CO)C[C@@H]2C)cc1	-23	2	/	0.21
Cc1noc(C)c1S(=O)(=O)Nc1ccc2c(c1)C(=O)N([C@@H](C)CO)C[C@@H](C)[C@@H](CN(C)C(=O)NC1CCCCC1)O2	/	-1	/	0.016
Cc1ccc(S(=O)(=O)Nc2cccc3c2O[C@@H](CN(C)Cc2ccccc2)[C@@H](C)CN([C@@H](C)CO)C3=O)cc1	-2	-1	0.7	0.21
CC(C)NC(=O)Nc1ccc2c(c1)C(=O)N([C@H](C)CO)C[C@H](C)[C@H](CN(C)C(=O)Cc1ccccc1)OCCCC[C@@H](C)O2	8	-7	0.0	-0.22
O=C(Cn1nc(-c2cccc([N+](=O)[O-])c2)c2ccccc2c1=O)Nc1cccc(C(F)(F)F)c1	/	23	-0.6	/
Nc1nnc(SCC(=O)NC23CC4CC(CC(C4)C2)C3)s1	/	14	1.6	/
CNC[C@H]1Oc2c(NC(=O)c3cnccn3)cccc2C(=O)N([C@@H](C)CO)C[C@H]1C	-3	-5	1.3	-0.1
CC(=O)Nc1ccc(NC(=O)CN(c2ccc(Cl)c(C(F)(F)F)c2)S(C)(=O)=O)cc1	/	7	0.4	/

A second format for part of the listing above:
CCc1ccccc1NC(=O)C(C)n1nc([N+](=O)[O-])c(Br)c1C (stereo unspecified)
  Hedgehog inh: /
  MITF inh: 3
  PD-1 reverse act: -2.8
  YB-1 expression: /
CNC[C@H]1Oc2c(NC(=O)c3cnccn3)cccc2C(=O)N([C@@H](C)CO)C[C@H]1C
  Hedgehog inh: -3
  MITF inh: -5
  PD-1 reverse act: 1.3
  YB-1 expression: -0.1

(listing goes on)
SMILES	Hedgehog inh	MITF inh	PD-1 reverse act	YB-1 expression
Cc1ccc(S(=O)(=O)N(C)C[C@H]2Oc3ccc(NC(=O)Nc4ccc(C(F)(F)F)cc4)cc3CC(=O)N([C@H](C)CO)C[C@H]2C)cc1	7	23	-3.5	0.091
CCCCOc1ccc(C(=O)CCN2CCCCC2)cc1	14	6	/	-0.44
C[C@H](CO)N1C[C@H](C)[C@H](CN(C)Cc2ccc(-c3ccccc3)cc2)Oc2ccc(NC(=O)NC3CCCCC3)cc2CC1=O	-14	12	-3.3	0.3
CC(C)N(Cc1nc(-c2ccc(Cl)cc2)no1)S(=O)(=O)c1ccc2ccccc2c1	/	-26	0.5	/
Cc1noc(C)c1S(=O)(=O)Nc1ccc2c(c1)CC(=O)N([C@@H](C)CO)C[C@H](C)[C@H](CN(C)S(=O)(=O)c1ccccc1)O2	-17	-15	/	0.22
Cc1ccc(-c2nn3c(C)nnc3c3ccccc23)cc1S(=O)(=O)NCC1CCCO1 (stereo unspecified)	/	-25	-3.6	/
C[C@@H]1CN([C@H](C)CO)C(=O)c2cc(NC(=O)CCN3CCOCC3)ccc2O[C@@H]1CN(C)C(=O)Nc1cccc2ccccc12	-17	-5	1.4	0.017
COc1ccc(-c2cc(C(F)(F)F)n3nc(C(=O)N(C)Cc4cnn(C)c4C)cc3n2)cc1OC	/	-43	-0.4	/
Cc1noc(C)c1S(=O)(=O)Nc1cccc2c1O[C@H](CN(C)Cc1ccccc1)[C@H](C)CN([C@H](C)CO)C2=O	-17	-7	/	-0.67
Cc1ccc(S(=O)(=O)N(C)C[C@@H]2Oc3c(NS(C)(=O)=O)cccc3C(=O)N([C@@H](C)CO)C[C@H]2C)cc1	3	-1	1.4	-0.42
C[C@@H]1CN([C@@H](C)CO)C(=O)c2cccc(NC(=O)c3nc4ccccc4s3)c2O[C@H]1CN(C)Cc1ccc2c(c1)OCO2	-3	55	/	-0.074
Cc1noc(C)c1S(=O)(=O)N(C)C[C@H]1Oc2ccc(NS(=O)(=O)c3cn(C)cn3)cc2CC(=O)N([C@H](C)CO)C[C@H]1C	-27	-12	1.3	-0.45
C[C@@H]1CN([C@H](C)CO)C(=O)c2cccc(NC(=O)NC3CCCCC3)c2O[C@@H]1CN(C)CC1CC1	-101	1	1.0	-0.04
Cc1noc(C)c1NC(=O)N(C)C[C@@H]1Oc2ccc(NS(=O)(=O)c3c(C)noc3C)cc2CC(=O)N([C@@H](C)CO)C[C@@H]1C	?	0	1.4	0.11
CN1CCN(CC(O)COCCC23CC4CC(CC(C4)C2)C3)CC1 (stereo unspecified)	38	-8	-0.7	0.087
C[C@@H]1CCCCO[C@H](CN(C)Cc2ccncc2)[C@@H](C)CN([C@H](C)CO)C(=O)c2cc(NS(C)(=O)=O)ccc2O1	-25	-4	/	0.19
Cc1noc(C)c1NC(=O)N(C)C[C@@H]1Oc2ccc(NS(=O)(=O)c3ccc(Cl)cc3)cc2CC(=O)N([C@H](C)CO)C[C@H]1C	?	-5	-0.3	-0.57
C[C@H]1CN([C@@H](C)CO)C(=O)c2cc(NS(=O)(=O)c3cn(C)cn3)ccc2O[C@@H]1CN(C)C(=O)NC1CCCCC1	/	-1	2.2	-0.55
C[C@@H]1CN([C@@H](C)CO)C(=O)c2cc(N(C)C)ccc2O[C@@H]1CN(C)Cc1ccc(Cl)c(Cl)c1	19	-1	-2.5	-0.47
C[C@@H]1CN([C@@H](C)CO)C(=O)c2cccc(NC(=O)Nc3ccc(F)cc3)c2O[C@H]1CN(C)Cc1ccc(C(F)(F)F)cc1	-12	46	-6.7	0.62
COc1ccc(CCNc2nc(C)nc3c2sc2nc4c(cc23)COC(C)(C)C4)cc1OC	/	-64	0.6	/
CC(C)NC(=O)N(C)C[C@H]1Oc2ccc(NC(=O)Nc3ccc(F)cc3)cc2CC(=O)N([C@@H](C)CO)C[C@H]1C	/	-7	0.4	-0.025
COc1ccc(NC(=O)Nc2ccc3c(c2)C(=O)N([C@H](C)CO)C[C@H](C)[C@H](CN(C)C(=O)NC2CCCCC2)O3)cc1	/	-8	0.5	0.22

Single records (already shown).
C[C@@H]1CN([C@@H](C)CO)C(=O)c2cc(NC(=O)C3CCCCC3)ccc2O[C@H]1CN(C)Cc1ccc2c(c1)OCO2 as listed: Hedgehog inh: /; MITF inh: -1; PD-1 reverse act: 0.3; YB-1 expression: 0.2
C[C@H](CO)N1C[C@H](C)[C@H](CN(C)Cc2ccc(-c3ccccc3)cc2)Oc2ccc(NC(=O)NC3CCCCC3)cc2CC1=O as listed: Hedgehog inh: -14; MITF inh: 12; PD-1 reverse act: -3.3; YB-1 expression: 0.3
C[C@@H]1CN([C@H](C)CO)C(=O)c2cc(NC(=O)CCN3CCOCC3)ccc2O[C@@H]1CN(C)C(=O)Nc1cccc2ccccc12 as listed: Hedgehog inh: -17; MITF inh: -5; PD-1 reverse act: 1.4; YB-1 expression: 0.017
